From PubChem
LANA-H2A inh – blockers of LANA interaction with H2A/H2B – biochemical, FP readout, HTS, primary screen; Protein LANA1 (Human herpesvirus 8 type P (isolate GK18)), Q9QR71; cell-free LANA-H2A/H2B peptide, fluorescence polarization; inhibition, % (concentration not given with the values); actives 0.6% (n = 320,000); in the data active = inhibition mostly above about 10%, no sharp cut-off; inactive = mostly below about 6.7%;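 note: stock transfer was 7.5 nL into about 10 µL; 0% = median of vehicle wells and 100% = median of positive control wells; one replicate is shown; the record names a cut of 25% in any replicate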
Target sequence (Q9QR71 whole entry, looked up): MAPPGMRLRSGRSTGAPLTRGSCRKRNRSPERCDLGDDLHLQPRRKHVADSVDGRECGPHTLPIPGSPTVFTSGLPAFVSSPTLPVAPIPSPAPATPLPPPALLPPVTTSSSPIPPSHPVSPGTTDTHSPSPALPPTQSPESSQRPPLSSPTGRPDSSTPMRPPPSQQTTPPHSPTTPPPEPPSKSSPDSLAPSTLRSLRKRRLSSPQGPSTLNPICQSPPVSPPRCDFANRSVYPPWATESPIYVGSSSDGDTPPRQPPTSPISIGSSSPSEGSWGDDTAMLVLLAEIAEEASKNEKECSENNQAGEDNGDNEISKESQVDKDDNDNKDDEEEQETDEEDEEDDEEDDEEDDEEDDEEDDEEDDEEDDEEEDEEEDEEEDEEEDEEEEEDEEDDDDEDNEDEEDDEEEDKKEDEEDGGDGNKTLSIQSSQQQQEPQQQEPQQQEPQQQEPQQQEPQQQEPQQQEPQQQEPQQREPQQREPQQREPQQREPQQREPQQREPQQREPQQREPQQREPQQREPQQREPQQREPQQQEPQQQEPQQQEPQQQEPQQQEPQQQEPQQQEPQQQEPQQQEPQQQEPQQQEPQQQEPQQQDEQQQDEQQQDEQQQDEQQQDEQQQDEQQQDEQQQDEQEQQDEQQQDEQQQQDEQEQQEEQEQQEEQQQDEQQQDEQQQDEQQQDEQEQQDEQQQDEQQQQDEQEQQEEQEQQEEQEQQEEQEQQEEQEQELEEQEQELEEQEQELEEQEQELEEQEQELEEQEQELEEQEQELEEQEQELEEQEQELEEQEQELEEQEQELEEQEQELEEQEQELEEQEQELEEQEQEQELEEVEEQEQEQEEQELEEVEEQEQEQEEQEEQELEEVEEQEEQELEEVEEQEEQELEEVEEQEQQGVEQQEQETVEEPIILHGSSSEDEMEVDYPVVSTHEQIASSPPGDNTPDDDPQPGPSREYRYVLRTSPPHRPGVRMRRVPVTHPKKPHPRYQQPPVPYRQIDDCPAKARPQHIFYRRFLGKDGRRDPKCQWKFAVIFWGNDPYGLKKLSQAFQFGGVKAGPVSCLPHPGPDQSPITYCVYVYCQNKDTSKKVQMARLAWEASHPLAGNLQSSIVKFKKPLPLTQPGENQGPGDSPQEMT
RanGTP-Impb inh – inhibitors of RanGTP-importin-beta interaction, primary screen, biochemical, FRET, CFP-Ran, YFP-importin-beta, homogeneous. Ran GTPase (GTP-bound) - importin-beta complex. cell-free CFP-Ran/YFP-importin-beta FRET ratio. inhibition, % (test concentration not listed). actives 1.1% (n = 300,000);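 active = most replicates above 15%; inconclusive = exactly half above 15%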;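 note: 0% = DMSO wells and 100% = Ran loaded with GDP instead of GTP; wells of about 40 µL received 100 nL stock; the first replicate is given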
B2AR ag – beta2AR agonists driving receptor internalization, primary screen, cell-based, FAP fluorogen, flow cytometry; Am2.2-beta2AR cells; reference of the scale not given here; response, % (no concentration beside the values); actives 0.43% (n = 340,000); AID 504454, 2011;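 active = response above a set limit, near 3 SD of response in nonfluorescent compounds, cut at about 42% in these data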;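 note: stock transfer was 100 nL into about 11 µL; a reference agonist was the positive control; negative values mostly stem from fluorescent compounds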
Beta cell apopt – inhibitors of cytokine-induced beta cell apoptosis, primary screen, luminescence; actives 0.8% (n = 300,000); INS-1E cytokine-induced death, ATP luminescence, 48 h; percent of positive-control rescue, neutral wells zero; protection from apoptosis, % (test concentration not listed);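 active = all replicates at 75% or more, or half of them and the mean; inconclusive = half reach 75% but not the mean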;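 note: 0% = cytokine-treated negative control wells and 100% = positive control rescue; higher means more ATP so stronger rescue from cytokine killing; wells of about 40 µL received 100 nL stock; the first replicate is given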
UCH37 inh – inhibitors of human UCH37 deubiquitinase, primary screen, biochemical, Ub-AMC cleavage, fluorescence; Ubiquitin carboxyl-terminal hydrolase isozyme L5 (Homo sapiens), Q9Y5K5; purified proteasome/UCH37; inhibition, % (test concentration not listed); actives 0.33% (n = 330,000);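 active = mean of two replicates above 20%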;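 note: 0% = compound-free wells with enzyme and 100% = wells lacking proteasome; stock transfer was 100 nL into about 20 µL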
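Material: Human UCH37 enzyme supplied as purified proteasome complex | Schedule: 30 min compound-proteasome preincubation then 25 min substrate reaction, room temperature | Detection: AMC fluorescence from Ub-AMC cleavage, excitation 355 nm, emission 460 nm | Benchmarks: Wells without proteasome as full block, compound-free enzyme plus substrate as uninhibited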
A1 inh – caspase 3/7 activation in MEF A1-2A-BIM cells, primary screen, A1 inhibitor project, cell-based, luminescence, HTS; Caspase-Glo 3/7 luminescence, 3 h; percent of clofoctol response, vehicle zero; caspase activation, % (no concentration beside the values); actives 0.066% (n = 330,000);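 active = over half of replicate activation scores above 10%, or exactly half above 10 with the replicate mean above 10; inconclusive = replicate mean below 10 yet half the replicates above 10; inactive = over half of replicates below 10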;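 note: wells of about 30 µL received 50 nL stock; many hits fall short of the cut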
T cruzi inh – inhibitors of intracellular T. cruzi growth, primary screen, luminescence, NIH3T3 host cells; T. cruzi beta-gal in NIH3T3, 90 h; inhibition, % (no concentration beside the values); actives 1.4% (n = 300,000); AID 1885, 2009;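 active = mean inhibition across valid replicates above about 55%, limit read from the data; inconclusive = mean below that limit but half or more replicates reach it; inactive = mean below it, under half of replicates reach it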;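 note: signal also drops with host cell toxicity which is not excluded here; 0% = plate median of DMSO wells and 100% = zero luminescence signal; higher percent means less beta-gal luminescence so fewer parasites; stock transfer was 50 nL into about 50 µL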
Calb FLC – C. albicans growth inhibition with fluconazole, primary screen, CaCi-2 strain, Alamar Blue fluorescence; C. albicans CaCi-2 (fluconazole-resistant clinical isolate) + fluconazole, 48 h; growth inhibition, % (test concentration not listed); actives 0.57% (n = 300,000); AID 1979, 2009;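 active = most replicates above 75%; inconclusive = exactly half above 75%; inactive = most below 75%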;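 note: all wells also contain fluconazole at 8 µg/ml as a sub-toxic cotreatment; 0% = median of DMSO wells and 100% = median of geldanamycin control wells; wells of about 8 µL received 7.5 nL stock; the first replicate is given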
Starred values were filed as active, the others as inactive; ? = inconclusive; / = not tested or not shown.

SMILES	LANA-H2A inh	RanGTP-Impb inh	B2AR ag	Beta cell apopt	UCH37 inh	A1 inh	T cruzi inh	Calb FLC
CCn1c(-c2cccc(Cl)c2)n[nH]c1=S	1.7	3.5	7	0	-1.6	0.8	10	2
O=C(/C=C\c1ccco1)Nc1nc(-c2ccc3ccccc3c2)cs1	-14	0.9	16	-5	-36	1.5	15	-4
Cc1cccc(N(Cc2cc(=O)[nH]c3ccccc23)C(=O)C(C)C)c1	-0.5	5.1	-20	1	3.1	0.2	-3	1
CC(=O)c1ccn(S(=O)(=O)c2ccc(Cl)cc2)c1	-0.5	1.1	-2	-4	0.7	-0.3	2	-1
Cc1nn(-c2ccccc2)c(C)c1/C=N/NC(=O)c1cc(-c2ccc(Cl)s2)[nH]n1	-0.3	-1.2	8	-1	/	-0.7	16	51
CCOC(=O)c1c(NC(=O)CSc2nnnn2-c2ccccc2)sc2c1CC(C)(C)NC2(C)C	2.7	5.4	11	-1	2.0	-0.1	73*	3
COCCNC(=O)C1CCCN(c2nn3c(=O)cc(C)nc3s2)C1 (configuration not stated)	-2.2	/	0	-3	5.2	1.8	/	/
NNC(=O)CSc1nc(-c2ccccc2)nc2c1CCCC2	0.3	?	-11	3	1.0	1.9	11	16
Cc1ccc(-c2c(C)c(-c3ccc(F)cc3)nc(N)c2C#N)o1	2.6	-7.3	13	-3	-61	0.4	2	-3
CCn1c(SCCC(=O)O)nnc1-c1cccnc1	0.5	2.7	2	-2	2.2	1.3	-8	-1
Cc1nc(SCC(=O)Nc2ccc(N3CCOCC3)cc2)nc(C)c1C	11	-2.2	-7	3	0.8	0.0	-16	-6
CCCCNC(=O)NCCN1CCOCC1	-2.1	-1.5	4	-4	3.3	-0.6	-6	16
COC(=O)[C@@]1(Cc2ccc(OC)cc2)[C@@H]2C(=CC(=O)[C@H]2CC(=O)C(=O)N(C)C)CN1C(=O)c1ccccc1	8.2	/	/	-5	3.8	-0.2	/	/
S=c1[nH]nc(-c2cc(-c3ccccc3)n[nH]2)n1/N=C/c1cccc(Cl)c1	2.3	1.0	1	0	/	-0.4	8	-1
COCCCn1c(=O)/c(=C\c2ccccc2OC(F)F)s/c1=C(/C#N)C(=O)NCCOC	3.0	-1.6	6	-1	/	-0.6	34	0
COCCn1c(SCc2cc(=O)n3cc(C)ccc3n2)nc2ccccc2c1=O	0.8	5.6	/	-2	-36	0.0	6	-3
O=C(c1cccnc1)N1CCN(S(=O)(=O)c2ccc(F)cc2)CC1	-3.3	-0.3	0	-5	-3.5	0.8	1	-12
O=C(O)C1=C[C@@H](C2CC2)C[C@@H](OCc2ccc(CO)cc2)O1	-8.9	-5.3	-2	-2	3.6	-1.2	-7	2
Clc1ccc(-c2nc(-c3cc4cc(Cl)ccc4o3)cs2)cc1	0.7	-1.4	0	4	4.7	1.3	-8	0
COc1ccc(CCNC(=O)CCS(=O)(=O)c2ccc(Br)cc2)cc1OC	1.6	2.6	7	-2	5.3	-0.5	4	-1
COc1ccc(S(=O)(=O)N2CCC(C(=O)NCCC(=O)NCc3ccccc3OC)CC2)cc1	14*	0.6	-1	-6	1.6	0.3	11	-2
COc1cc(CN2CCC(n3nccc3NC(=O)C3CC3)CC2)cc(OC)c1	1.5	3.3	-6	-8	0.1	-0.2	5	1
Cc1ccc2nc(CCCc3nc4ccc(C)cc4[nH]3)[nH]c2c1	/	2.4	8	/	3.0	/	-19	-5
COCCCNC(=O)CN(c1ccc(OC)cc1)S(=O)(=O)c1ccc(NC(C)=O)cc1	3.0	-0.4	-6	0	1.5	0.3	-19	-8
O=S1(=O)N=C(N2CCCC2)c2ccccc21	-3.0	3.0	-2	-5	1.7	0.2	-9	-5
C/C(Cl)=C/Cn1c(SCC(C)C)nc2c1c(=O)[nH]c(=O)n2C	9.8	5.2	4	10	2.5	-0.1	-4	2
CCCCNC(=O)CC1N=C2c3ccccc3N=C(SCC(=O)Nc3ccccc3OC)N2C1=O (configuration not stated)	4.5	-1.9	1	-8	3.4	1.3	-7	-3
O=C(O)c1ccc(CSC2CCCCC2)cc1	-2.9	-6.3	-8	2	6.2	-3.9	-8	5
CCN(C(=O)CN(C)Cc1cccc(Cl)c1Cl)c1c(N)n(Cc2ccccc2)c(=O)[nH]c1=O	-1.9	3.0	5	-2	5.2	0.1	5	-16
CC(=O)c1ccc(O)c(CC=C(C)C)c1O	0.9	-0.4	0	4	2.8	-0.1	7	1
COc1ccc(NC(=O)C/C(C)=N/NC(=O)c2ccco2)c([N+](=O)[O-])c1	-3.9	0.6	-7	2	/	0.6	-9	7
O=C(COC(=O)c1cccc(-n2cnnn2)c1)c1ccc(Br)cc1	12	-0.4	1	3	4.8	0.2	-6	-1
N#Cc1cc(C(=O)c2ccccc2OCC(=O)Nc2ccccc2Cl)cn(C2CCCCC2)c1=O	-0.6	2.6	-12	/	6.5	0.1	11	11
Cc1ccc(NCC(=O)Nc2cccc(F)c2)cc1S(=O)(=O)N1CCCCCC1	-1.2	-3.7	-6	-3	/	-0.7	16	-8
COc1ccc(C2C(C#N)=C(N)Oc3cc(C)[nH]c(=O)c32)c(OC)c1OC (configuration not stated)	-12	/	-2	-1	4.8	-0.1	/	/
Fc1ccc(-n2c(CN3CCCCC3)n[nH]c2=S)cc1	5.8	-0.6	-3	1	3.9	-0.6	-9	0
COc1cc(OC)c(OC)cc1CNC(=O)c1cc(S(=O)(=O)N2CCOCC2)ccc1F	0.0	/	2	-3	3.7	-0.3	/	/
COc1cccc(CNc2nc3ccc(C)cc3n3cnnc23)c1	1.4	1.0	-23	-6	-41	-0.2	-4	3
COc1ccc(CN2CSC(=S)N(Cc3ccccc3)C2)cc1	-0.2	0.6	1	5	-0.3	0.2	-5	3
Cc1[nH]c2ccccc2c1C(=O)C(C)OC(=O)c1ccc([N+](=O)[O-])o1 (configuration not stated)	1.0	3.1	3	-35	5.1	-0.4	18	?
Cc1ccccc1S(=O)(=O)Nc1cccnc1	0.2	4.8	0	-8	4.6	-0.5	-17	-2
Cn1cc(C=O)c2ccccc21	4.5	-3.7	6	8	-1.9	-0.8	-5	-25
COc1ccc(Cl)cc1S(=O)(=O)N1CCCC1=O	-5.0	3.2	-7	-12	/	0.8	9	26
Cc1ccc(C(c2nnnn2CC2CCCO2)N2CCN(C(=O)c3ccco3)CC2)cc1 (configuration not stated)	5.3	4.4	-4	-3	2.0	0.4	-10	-6
O=C(CCNC(=O)c1ccccc1)OCN1C(=O)c2ccccc2C1=O	-46	-0.8	-3	-3	1.3	-0.3	4	5
O=C(Nc1ccc2c(c1)OCO2)c1ccc(Cl)nc1	-4.2	6.3	7	-2	0.1	0.1	12	-9
CC1(C)CC2(CCCN(CC(O)(c3ccccc3)c3ccccc3)C2)CCO1 (configuration not stated)	5.0	0.9	-2	-4	2.9	0.6	26	16
O=C1/C(=C/c2cccs2)SC(=S)N1c1ccccc1	-1.1	2.9	-12	8	2.1	0.0	-3	-8
Cn1nc(C(=O)Nc2ccc(Cl)c(S(=O)(=O)N3CCOCC3)c2)c2ccccc2c1=O	2.2	/	18	-4	6.0	-0.9	/	/
Cc1cc(C)c(NC(=O)CCCn2c(=O)oc3ccccc32)c(C)c1	3.3	/	-4	1	0.6	0.2	/	/
Cn1cc(C2=C(c3ccc(Cl)cc3Cl)C(=O)NC2=O)c2ccccc21	2.9	-65	-250	-5	5.2	0.0	12	0
CCCn1c(O)c(C=Nc2ccccc2)sc1=S	-1.0	27*	-1	10	2.7	-2.0	15	-6
COc1cc(-c2noc(C)c2C#Cc2ccc(N)cc2)cc(OC)c1OC	-0.3	2.5	17	25	1.2	0.8	33	-4
CC(C(=O)NCCc1ccccc1)N1c2cccc3cccc(c23)S1(=O)=O (configuration not stated)	-4.6	2.2	1	-2	-41	0.8	13	8
Fc1ccc(/C=N/Nc2cc(N3CCOCC3)ncn2)cc1	-5.3	6.8	-3	8	/	-0.1	19	-7
CCc1c(C(=O)NCc2ccccc2Cl)[nH]c(C)c1C(C)=O	-3.2	-0.8	3	0	2.8	-0.3	12	2
Brc1[nH]nc2ccccc12	-4.1	-0.5	-1	0	4.8	0.2	-6	-6
Cn1cccc1CNC(=O)Nc1ccc(Cl)cc1	-0.4	2.3	-1	9	4.1	-0.2	-12	0
Cn1nnnc1SCC(=O)Nc1c(Cl)cccc1Cl	-0.8	5.1	0	-6	2.4	-0.6	-22	-2
O=C(C1=CC=CN2CCS(=O)(=O)N=C12)N1CCN(c2cccc(Cl)c2)CC1	4.0	/	0	-8	-1.4	1.0	/	/
The list goes on:
SMILES	LANA-H2A inh	RanGTP-Impb inh	B2AR ag	Beta cell apopt	UCH37 inh	A1 inh	T cruzi inh	Calb FLC
Cc1ccccc1CC1(CO)CCCN(C(=O)Cc2c(F)ccc(F)c2F)C1 (configuration not stated)	-0.5	0.2	3	/	6.4	0.7	8	-4
O=P(CCC(F)(F)F)(CCC(F)(F)F)CCC(F)(F)F	1.1	2.4	5	-4	6.1	-1.5	-4	6
COc1cccc(NC(=O)c2ccccc2)c1	1.3	/	-7	3	2.9	-6.1	/	/
O=C(Nc1ccc(-c2noc(-c3cccs3)n2)cc1)c1cccnc1	-4.1	0.4	-1	99*	-28	-1.6	21	57
Cc1noc(/C=C/c2ccco2)c1S(=O)(=O)N1CCC(C(=O)Nc2ccc(Cl)cn2)CC1	2.4	5.0	-2	11	2.5	0.8	50	-6
O=C(O)c1cccc(NN=C2c3ccccc3-c3ccccc32)c1	/	-4.7	-3	/	11	/	-15	64
COc1ccc(-c2coc3cc(OC)cc(O)c3c2=O)cc1	0.8	-1.6	-1	1	/	-6.9	-8	-1
CCc1cc(=O)oc2cc(C)cc(OCC(=O)NCc3ccccn3)c12	0.0	1.7	-2	/	-135	0.7	-8	-4
COc1ccccc1CN(CC(=O)NCc1ccco1)C(=O)CNS(=O)(=O)c1ccc(C)cc1	-0.8	-2.2	-4	-6	5.6	-0.3	4	15
COc1cccc(CN(C)C(=O)c2ccc3c(=O)n4c(nc3c2)CCC4)c1OC	-2.4	3.2	-8	1	0.3	0.5	-3	-8
O=C(c1ccccc1)N1N=C(C(F)(F)F)CC1(O)c1ccc(F)cc1 (configuration not stated)	1.2	3.5	8	1	5.1	0.7	-25	-41
O=C(NC1CCCCCC1)C1CCN(S(=O)(=O)c2cccc3cccnc23)CC1	1.1	1.9	-4	-8	/	-0.1	-16	2
Cc1ccc(C)c(Cn2c(=O)c3c(nc4n3CCN4Cc3ccco3)n(C)c2=O)c1	3.9	-0.4	-4	7	0.4	0.2	-9	-12
CCOC(=O)c1ccc(S(=O)(=O)N2CCN(c3ccccn3)CC2)cc1	0.9	2.6	2	0	2.9	-0.3	-4	7
